Six1-Eya2 inh: inhibitors of human Six1/Eya2 interaction | Q15475+O00167 | AlphaScreen GST-Six1/His-Eya2 binding, biochemical; active compounds read low; control for the full effect not named in the record | activity change, % (no concentration beside the values) | 360,000 tested, 0.56% active; in the data active = activity change below about -65%; inconclusive = about -30% to -65%; inactive = above about -30%; also: % is scaled to controls: 0 for no effect and ±100 for the full control effect
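Compounds are tested against tagged Six1 and Eya2 proteins bridged by glutathione donor and nickel acceptor beads; after a one-hour incubation at 37 °C without light, AlphaScreen emission is recorded.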
D2 PAM: potentiates the human D2 dopamine receptor allosterically | DiscoveRx D2 beta-arrestin cells, luminescence, 90 min; 100% = 57 uM dopamine signal | potentiation, % (test concentration not listed) | 360,000 tested, 0.23% active | AID 624464; active = potentiation of 50% or more; inconclusive = 30% to 50%; inactive = 30% or less;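 also: compound concentration not given in the record; tested on top of an EC20 dose of dopamine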
Target sequence (P14416 whole entry, looked up): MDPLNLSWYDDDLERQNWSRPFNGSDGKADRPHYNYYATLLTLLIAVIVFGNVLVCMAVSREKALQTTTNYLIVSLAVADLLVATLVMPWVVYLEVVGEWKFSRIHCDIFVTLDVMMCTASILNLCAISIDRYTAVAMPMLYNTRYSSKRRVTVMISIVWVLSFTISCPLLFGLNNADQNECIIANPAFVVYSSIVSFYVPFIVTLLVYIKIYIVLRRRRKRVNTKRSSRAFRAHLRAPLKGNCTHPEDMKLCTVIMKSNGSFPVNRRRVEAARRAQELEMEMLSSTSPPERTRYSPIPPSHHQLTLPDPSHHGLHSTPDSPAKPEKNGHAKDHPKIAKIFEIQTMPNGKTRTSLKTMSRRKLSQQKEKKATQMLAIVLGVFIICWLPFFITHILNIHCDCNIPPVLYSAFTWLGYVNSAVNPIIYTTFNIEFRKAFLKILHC
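D2 cells co-treated with compound plus 50 nM dopamine (EC20) for 90 min at 37 deg C to detect potentiation. Beta-arrestin recruitment was read as enzyme-fragment luminescence after 1 h at ambient temperature. Full response was set by 57 uM dopamine.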
TRPML1 blocker: blocks the human TRPML1 channel; 390,000 tested, 0.02% active; activity change, negative = inhibition, % (no concentration beside the values); TRPML1-inducible cells, Ca2+ dye fluorescence, FDSS; active compounds read low; inhibition of EC80 agonist-evoked calcium signal; AID 624415; in the data active means activity change below about -50%; inconclusive means about -30% to -50%; inactive means above about -30%;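 also: stimulus is agonist 54-4 at its EC80 concentration; % is scaled to controls: 0 for no effect and ±100 for the full control effect; compound concentration not given in the record; the text of the record puts the active cut at -80%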
Target sequence (Q9GZU1 whole entry, looked up): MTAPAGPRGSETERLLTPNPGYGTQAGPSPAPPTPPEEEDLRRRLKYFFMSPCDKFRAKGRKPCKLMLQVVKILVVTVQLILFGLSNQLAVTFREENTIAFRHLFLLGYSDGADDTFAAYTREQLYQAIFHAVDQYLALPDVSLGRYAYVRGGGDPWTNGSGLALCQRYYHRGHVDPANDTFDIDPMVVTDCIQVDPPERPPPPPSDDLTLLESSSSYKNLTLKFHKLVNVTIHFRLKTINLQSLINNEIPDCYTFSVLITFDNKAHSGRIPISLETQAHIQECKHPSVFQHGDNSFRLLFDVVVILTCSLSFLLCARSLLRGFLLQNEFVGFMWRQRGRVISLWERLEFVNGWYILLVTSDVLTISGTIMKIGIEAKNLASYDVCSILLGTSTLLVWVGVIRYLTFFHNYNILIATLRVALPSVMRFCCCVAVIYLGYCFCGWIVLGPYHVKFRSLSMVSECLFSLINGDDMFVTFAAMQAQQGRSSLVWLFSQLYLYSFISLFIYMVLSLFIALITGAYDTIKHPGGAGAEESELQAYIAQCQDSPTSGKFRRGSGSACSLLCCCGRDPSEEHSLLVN
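Tet-induced TRPML1-DL cells loaded with Ca8 no-wash calcium dye were read kinetically on FDSS. Compound addition was followed by EC80 agonist 54-4 (4 uM final); inhibition was read over 110 s.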
TRPML1 agonist: agonists of human TRPML1 channel. 410,000 tested, 0.12% active. activation, % (no concentration beside the values). TRPML1-expressing cells, Ca2+ dye fluorescence, FDSS; host cell line not named in the record; reference of the full effect not given here; in the data active = activation above about 50%; inconclusive = about 30% to 50%; inactive = below about 30%; also: 0% is about no effect; the text of the record puts the active cut at 80%
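Tet-induced TRPML1-DL cells, 1,500 per well, cultured overnight, were loaded with a no-wash Ca2+ dye for 45–90 min. Calcium fluorescence was recorded on the FDSS for 110 s after compound addition, before the EC80 agonist (4 uM 54-4) was added.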
PINK1 expr mod: changes PINK1 expression | PINK1 immunofluorescence, high-content cytometry, 24 h | 410,000 tested, 0.2% active | AID 624263 | Potency, µM (titrated, usually from 76.6 µM), inactives show at the top dose activation (PINK1 increase), hits mostly activators; active = well fitted activation curve with a large enough effect; inconclusive = small, poorly fitted or top-dose-only effect; inactive = flat fitted curve, though single readings scatter; cell line not stated here;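 also: potency is read from the fitted curve at half-maximal effect; % of control where 0% means no effect; nearly all actives have a fitted effect of over 65% in size; a mitochondrial uncoupler was the plate control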
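Measures PINK1 amount and localization on or inside mitochondria by immunofluorescence. Stable cells get compounds at 5 concentrations for 24 hours before fixation and staining; CCCP controls included.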
D2 ag: human D2 receptor agonism in beta-arrestin assay | activation, % (no concentration beside the values) | 360,000 tested, 0.084% active | DiscoveRx PathHunter D2 beta-arrestin, luminescence, 90 min; 100% = 57 uM dopamine signal; in the data active = activation above about 40%; inconclusive = about 15% to 40%; inactive = below about 15%; also: compound concentration not given in the record; the text of the record calls up to 30% inactive
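DiscoveRx PathHunter D2 beta-arrestin cells (2,100/well) attached overnight, then compound-stimulated 90 min at 37 C in HBSS/10 mM HEPES/0.1% Tween-20 buffer; beta-galactosidase complementation read by luminescence after 1 h at ambient temperature. Dopamine 57 uM final (EC100) as control.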
* = called active by the depositor; ? = inconclusive; nt = no result given; [ ] = dose if it differs, or a comment. Outcome played no part in choosing rows; 1% or so of the library scored in one or more.

SMILES | Six1-Eya2 inh | D2 PAM | TRPML1 blocker | TRPML1 agonist | PINK1 expr mod | D2 ag
CSc1nsc(SCC(=O)Nc2ccc3c(c2)OCCO3)n1 | 1.4 | -20.5 | 17.6 | 1.4 | 1.2% | -1.1
O=C1NC[C@@H](CCCCN2C[C@H](Cc3ccccc3)N(CCc3ccccc3)C(=O)C2=O)N(Cc2ccccc2)C1=O | 2.6 | nt | nt | -0.5 | 0.3% | nt
COc1ccc(S(=O)(=O)N2CCOC23CCN(S(=O)(=O)c2ccc(Cl)cc2)CC3)cc1 | -1.1 | 23.5 | 2.5 | 0.0 | 1.4% | 8.2
COc1ccc(S(=O)(=O)N2CCN(c3ccccn3)CC2)c(OC)c1 | 0.6 | -2.5 | nt | nt | 0.2% | 2.5
CCOC(=O)c1c(C)[nH]c(C)c1C(=O)CSc1nc2ccccc2c(=O)n1-c1ccccc1C | -13.1 | 4.5 | 10.3 | -0.2 | -0.6% | 2.2
COC(=O)[C@]1(S(=O)(=O)c2ccccc2)C[C@@H]2ON=C(c3ccc(OC)cc3)[C@@H]2C1 | -0.9 | ? | 17.4 | -1.0 | 0.3% | 6.7
COc1cccc(OC)c1OCCCc1c(C)n[nH]c1C | -0.5 | -6.4 | 3.7 | -1.2 | 0.6% | -1.6
CCCCCc1nnc(NC(=O)CN2C(=O)C3CCCCC3C2=O)s1 (configuration not stated) | -7.3 | -9.8 | -6.6 | -0.4 | -0.7% | -2.9
O=C(C[n+]1ccccc1)N1c2ccccc2Sc2ccccc21 | 0.4 | 6.6 | 18.7 | -0.2 | 2.3% | 1.7
CCN=C1S/C(=C\c2ccc(-c3cccc(C(=O)O)c3)o2)C(=O)N1CC | -0.1 | 1.0 | 13.9 | 3.6 | -1.5% | -0.5
NC1=NS(=O)(=O)NC1c1ccc(Br)cc1 (configuration not stated) | 0.5 | -4.1 | -8.6 | 0.4 | 0.9% | 1.0
O=C(C[n+]1cnn(CC(=O)c2ccc(Cl)cc2Cl)c1)c1ccc([N+](=O)[O-])cc1 | -5.1 | -15.9 | 2.4 | -0.2 | -1.7% | -0.6
Cc1cc(C(F)(F)F)c(C#N)c(SCC(=O)Nc2nc3ccccc3s2)n1 | 16.0 | -8.9 | -15.3 | ? | ? | 0.4
CCOc1ccccc1NC(=O)C(c1ccccc1)N1Cc2ccccc2C1=O (configuration not stated) | nt | nt | -15.8 | 0.8 | 0.7% | nt
O=C(CS(=O)(=O)c1c[nH]c2ccccc12)N1CCCCC1 | -7.5 | -7.3 | 25.3 | 1.6 | -0.3% | -5.7
CC1=CCC(C(=O)O)(C(=O)N/N=C/c2cccs2)C(c2ccc(Cl)cc2)C1 (configuration not stated) | -1.4 | 13.4 | -6.4 | 0.0 | 4.6%[38.3 µM] | -2.0
COc1cccc(-c2csc(Nc3ccc(Oc4ccccc4)cc3)n2)c1 | -16.6 | -0.4 | nt | -0.3 | 6.2% | 9.2
CCOc1ccc(S(=O)(=O)N2CCN(C)CC2)c(C)c1C | 5.5 | -19.7 | 27.2 | 0.7 | -2.9% | -0.2
O=C(NCCC1CC1(Cl)Cl)c1ccc([N+](=O)[O-])cc1 (configuration not stated) | -7.2 | 2.1 | 14.2 | -1.5 | 1.2% | 1.7
COc1cc(/C=C/C(=O)OC(C)C(=O)Nc2ccc(Cl)cn2)ccc1OC(F)F (configuration not stated) | 0.3 | -21.8 | -15.8 | 0.6 | 1.2% | 2.0
CCOc1ccc(CCNC(=O)CCc2c(C)nc3ncnn3c2C)cc1OCC | 2.4 | -4.1 | 1.5 | 5.1 | 0.4% | -0.2
Cc1ccc(C(=O)NCC(C)(C)N2CCOCC2)s1 | 3.8 | -27.1 | 2.4 | -0.2 | -1.0% | -1.0
Cc1cc(Nc2ccccc2)n(C(=O)c2ccc(Cl)cc2)n1 | 1.8 | -2.0 | 33.8 | 1.4 | nt | -1.1
CCOc1ccc(CCNc2ncnc3onc(-c4ccc(Cl)cc4)c23)cc1 | nt | nt | -10.9 | 0.2 | 0.5% | nt
Cc1ccc(CSc2nnc(SCC(=O)N/N=C/c3c[nH]c4ccccc34)s2)cc1 | -5.3 | -3.4 | 5.4 | -1.1 | 0.4% | -1.4
Carrying on:
SMILES | Six1-Eya2 inh | D2 PAM | TRPML1 blocker | TRPML1 agonist | PINK1 expr mod | D2 ag
Cc1cc(S(=O)(=O)Nc2ccc(C(=O)N3CCN(C(=O)c4ccco4)CC3)cc2)ccc1F | 8.9 | -5.5 | -0.9 | -0.9 | 0.3% | 2.5
O=C(COc1ccc(Cl)cc1)NNC(=O)c1ccc2c(=O)n3c(nc2c1)CCC3 | ? | -19.4 | -1.6 | -0.3 | 9.9% | -1.8
COc1ccccc1N(C)S(=O)(=O)c1ccc(C(=O)Nc2ccc(C(N)=O)cc2)cc1 | -0.8 | 1.2 | 0.9 | -0.4 | 3.0% | 5.8
COc1ccc(-c2noc(CN(C(=O)c3ccccc3Cl)C(C)C)n2)cc1 | nt | nt | 0.8 | 1.4 | 5.3% | nt
CCOc1ccc(NC(=O)CSc2nncc(=O)n2N)cc1 | 22.8 | -5.4 | 7.0 | 0.7 | 2.8% | -3.1
CCSc1nnc(NC(=O)CC)s1 | 6.0 | -10.5 | -2.0 | 0.1 | -0.7% | 4.9
COc1ccccc1NS(=O)(=O)c1cc(C(=O)NCc2ccncc2)ccc1C | 3.6 | -1.5 | 5.7 | 0.8 | -1.8% | 10.9
CC(=O)c1cccc(S(=O)(=O)NC2CCSc3ccccc32)c1 (configuration not stated) | -1.2 | 2.1 | -4.9 | -0.4 | 2.3% | 1.4
COc1ccc(N2C(=O)C3CCCN3C2c2cccc(C)c2)cc1Cl (configuration not stated) | -1.6 | 7.1 | 3.8 | 1.6 | -1.1% | 0.4
O=S(=O)(c1ccc(Cl)cc1)N1c2ccccc2Oc2nc3ccccc3nc21 | -8.0 | -15.0 | 20.6 | -1.1 | 3.5% | -3.4
Cc1ccc(C(=O)c2cn(Cc3ccccc3)c3cc4c(cc3c2=O)OCCO4)cc1 | nt | nt | -6.9 | 1.4 | 0.0% | nt
C#CCNC(=O)C1=C[C@H](C)C[C@H](OCc2ccc(CO)cc2)O1 | 6.8 | -6.4 | -7.4 | 0.6 | 0.9% | -3.2
COc1ccc(CNCc2c(C(=O)O)c(C)n(Cc3ccc(Cl)cc3)c2C)c(OC)c1 | nt | nt | 26.9 | 0.7 | -1.1% | nt
COc1cccc(NC(=O)CN(C)C(=O)CCc2nc3sc4c(c3c(=O)[nH]2)CCCC4)c1 | -23.0 | -15.7 | 4.5 | 0.1 | ? | -6.8
O=C(COC(=O)c1ccc(NC(=O)C2CC=CCC2C(=O)O)cc1)c1ccccc1 (configuration not stated) | -3.5 | -2.8 | 4.9 | 0.1 | 5.2% | 3.3
Cc1cc(C)cc(NC(=O)CSc2nc(CSc3ccc(Cl)cc3)cc(=O)[nH]2)c1 | 11.0 | 6.5 | -14.8 | 0.7 | -1.4% | -0.2
CC1(C)CNC(=O)CC(C)(C)N1O | -0.5 | 21.3 | 1.5 | 0.1 | 7.6%[38.3 µM] | 2.6
COc1ccc(-c2cc(C(=O)Nc3cccc(C(C)=O)c3)no2)cc1 | 1.4 | -29.0 | -2.1 | 0.4 | 8.0%[38.3 µM] | 1.7
CC(C)c1nc(Cl)c(C#N)c2c1COC(C)(C)C2 | 3.6 | -9.4 | -15.5 | -0.6 | 4.0% | -5.0
COc1ccc(NC(=O)CN(C)C(=O)c2cccc(S(=O)(=O)Nc3ccc(F)cc3)c2)cc1 | 3.2 | 4.7 | 2.5 | 0.8 | 0.5% | -0.1
c1ccc(N2CCN(c3nc4ccccc4[nH]3)CC2)nc1 | 8.1 | -1.5 | -15.9 | 0.3 | 0.4% | -0.2
COc1ccc(CC(=O)NNC(=O)CSc2nnc(Cc3ccc(OC)cc3)n2-c2ccccc2)cc1 | -2.6 | -10.5 | -11.7 | 1.0 | 1.4% | -4.2
CC(C)C1CC2=C(C(=O)OC(C)(C)O2)C(c2ccc(Cl)cc2)O1 (configuration not stated) | 4.2 | 1.7 | 11.2 | 0.2 | 2.0% | -1.7
Cc1ccc(C)c(N/C=C(\C#N)c2nc3ccccc3o2)c1 | 1.2 | -8.0 | 0.3 | 0.2 | ? | -3.4
CCOC(=O)c1[nH]cc(-c2ccccc2)c1N1CCOCC1 | -5.2 | 7.2 | 2.7 | -0.5 | 0.1% | -2.4

As entered above.
Result of COc1ccccc1N(C)S(=O)(=O)c1ccc(C(=O)Nc2ccc(C(N)=O)cc2)cc1 in D2 PAM: 1.2
Result of O=C(COc1ccc(Cl)cc1)NNC(=O)c1ccc2c(=O)n3c(nc2c1)CCC3 in TRPML1 agonist: -0.3
Result of Cc1cc(S(=O)(=O)Nc2ccc(C(=O)N3CCN(C(=O)c4ccco4)CC3)cc2)ccc1F in D2 ag: 2.5

The results go on.
SMILES | Six1-Eya2 inh | D2 PAM | TRPML1 blocker | TRPML1 agonist | PINK1 expr mod | D2 ag
CN(c1ccccc1)S(=O)(=O)c1cccc(NC(=O)C2CC(=O)N(Cc3ccccc3)C2)c1 (configuration not stated) | -4.3 | -15.1 | -4.7 | 0.6 | -0.8% | -3.8
O=C1CN(S(=O)(=O)c2cc(C(=O)O)ccc2Cl)c2ccccc2N1 | -2.6 | -5.0 | -18.0 | 0.3 | 0.3% | -0.8
COc1ccc(NC(=O)CCC(=O)NCc2ccco2)c([N+](=O)[O-])c1 | 2.6 | -0.6 | 1.2 | 0.8 | -1.5% | -2.7
CCCCCCc1c(O)c2ccccc2[nH]c1=O | 1.2 | -12.7 | 2.5 | -0.5 | 0.4% | -5.1
COc1ccc(-c2csc(NC(=O)c3ccccc3NS(=O)(=O)c3ccc(C)cc3)n2)cc1 | -11.5 | 3.9 | -2.6 | 0.3 | 14.1µM* | 5.5
C/C(Cl)=C/Cc1c(C)[nH]c2c(ccc3ccccc32)c1=O | -15.4 | -6.2 | 0.0 | -0.7 | 11.2% | 2.5
CCN(CC)CCCNC(=S)N1CCN(c2nc3ccccc3n2CC)CC1 | 2.0 | -20.5 | -4.7 | 0.0 | 1.5% | 5.8
COc1ccc(/C=C2\N=C(c3c(-c4ccccc4)noc3C)OC2=O)cc1OC | 9.0 | -7.0 | 49.8 | 0.1 | -0.2% | -1.7
Cc1ccc(NC(=O)c2ccc(Cl)cc2Cl)c(C(=O)c2ccccc2)c1 | nt | nt | 9.8 | 2.5 | 3.7% | nt
CCOc1cccc(Oc2ccc(C(F)(F)F)cn2)c1 | 27.3 | -7.5 | 24.6 | -0.2 | 6.0%[38.3 µM] | -1.9
Cc1cc(-c2nnc(SCC(=O)Nc3ccccn3)o2)no1 | ? | -9.4 | -10.7 | -0.2 | 2.7% | -1.3
CCn1cnc2sc(C(=O)Nc3ccc4c(c3)OCO4)c(C)c2c1=O | -23.9 | -14.5 | 0.7 | -0.5 | 1.6% | -0.8
CC(C)Cn1c(CNC(=O)c2ccccc2)nc2ccccc21 | 20.4 | -33.7 | -11.7 | 0.4 | -1.2% | -0.5
CCn1c(SCC(=O)Nc2nc3ccc(OC)cc3s2)nc2c1c(=O)n(C)c(=O)n2C | -0.7 | 1.4 | -8.9 | 1.0 | -3.8%[38.3 µM] | 2.2

Compound activity deposited in PubChem by National Center for Advancing Translational Sciences (NCATS).
